FGF22 binding: binders of human FGF22 protein, primary screen, FGF22 synaptogenesis inhibitor project, biophysical, thermal shift, single point | Fibroblast growth factor 22 (Homo sapiens), Q9HCT0 | recombinant FGF22 thermal shift, SYPRO orange fluorescence; percent of sucrose octasulfate shift, DMSO zero | calls only at 9.99 µM | 340,000 tested, 1.5% active | AID 651658, 2012;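 active = melting point raised past a set limit in the mean and every replicate; three in four hits are not shown here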
Target sequence (Q9HCT0 whole entry, looked up): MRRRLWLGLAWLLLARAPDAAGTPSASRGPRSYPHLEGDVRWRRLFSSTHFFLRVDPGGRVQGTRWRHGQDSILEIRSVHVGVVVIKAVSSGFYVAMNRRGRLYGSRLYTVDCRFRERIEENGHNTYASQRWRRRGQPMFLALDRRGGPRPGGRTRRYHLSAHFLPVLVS
Ecoli rRNA inh: reduced GFP signal of wild-type E. coli, primary screen, bacterial rRNA inhibitor project, GFP/RFP fluorescence, OD600, single point | GFP signal change (wild-type ribosome), % (concentration not given with the values) | E. coli WT GFP vs humanized-ribosome RFP mutants, 24 h; active compounds read low; DMSO median 0, no signal -100 | 350,000 tested, 1.6% active;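 active = significant combined selectivity score with lowered wild-type GFP, culture density cut under 30%, mutant RFP and density less affected; inactive = any of these conditions unmet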; note: one replicate is shown; some compounds called inactive have numbers as strong as hits
Ecoli rRNA inh OD600: also measured in Ecoli rRNA inh; calls as there; OD600 change, %; measured here: OD600 growth;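 optical density of the mix in the first replicate; 0 = DMSO median and -100 = no signal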
Ecoli rRNA inh RFP: second read-out of Ecoli rRNA inh, no call of its own (marks repeat the call); RFP signal change, %; measured here: RFP humanized mutant strains;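 first replicate; 0 = DMSO median and -100 = no signal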
Starred values were filed as active, the others as inactive; i = inactive. These rows are one share of the data; count on the stated rates, not on these rows.

No.	mol	FGF22 binding	Ecoli rRNA inh	Ecoli rRNA inh OD600	Ecoli rRNA inh RFP
1	C[C@@H]1CN([C@H](C)CO)C(=O)c2cc(NC(=O)CCCN(C)C)ccc2O[C@H]1CN(C)S(=O)(=O)c1ccc(Cl)cc1	i	5	12	-2.0
2	C[C@H](O)C#Cc1ccc2c(c1)O[C@H](CN(C)C(=O)C1CC1)[C@H](C)CN([C@@H](C)CO)S2(=O)=O	i	2	4	-2.9
3	COc1ccccc1C#Cc1cnc2c(c1)C(=O)N([C@@H](C)CO)C[C@H](C)[C@@H](CN(C)C(=O)c1ccc3c(c1)OCO3)O2	i	-2	-4	5.9
4	CO[C@@H]1CN(C)C(=O)c2cc(NC(C)=O)ccc2OC[C@H](C)N(C(=O)c2ccccn2)C[C@H]1C	i	2	2	-1.9
5	C[C@@H]1CCCCO[C@H](CN(C)C(=O)Nc2ccc3c(c2)OCO3)[C@@H](C)CN([C@@H](C)CO)C(=O)c2cc(NC(=O)CCCN(C)C)ccc2O1	i	0	10	-0.4
6	C[C@H](CO)N1C[C@H](C)[C@H](CN(C)Cc2ccc3c(c2)OCO3)OCCCC[C@H](C)Oc2ccc(NC(=O)Nc3ccc(C(F)(F)F)cc3)cc2C1=O	i	-5	7	-5.8
7	C[C@H]1CN([C@@H](C)CO)C(=O)c2cc(/C=C/c3ccccc3)cnc2O[C@H]1CN(C)Cc1ccccc1F	i	-18	-50	29
8	O=C(Cc1ccncc1)NCC[C@@H]1CC[C@@H](NC(=O)C2CCC2)[C@@H](CO)O1	i	0	6	-0.3
9	CCCN(C)C[C@H]1OCCCC[C@@H](C)Oc2ccc(NS(=O)(=O)c3cn(C)cn3)cc2C(=O)N([C@@H](C)CO)C[C@@H]1C	i	3	-2	-0.4
10	C[C@H]1CN([C@@H](C)CO)C(=O)Cc2cc(NS(=O)(=O)c3cccs3)ccc2O[C@H]1CN(C)C(=O)Nc1ccc2c(c1)OCO2	i	2	-5	-0.8
11	CO[C@H]1CN(C)C(=O)c2cc(NS(=O)(=O)CC(F)(F)F)ccc2OC[C@@H](C)N(Cc2cccnc2)C[C@H]1C	i	-4	-3	-1.1
12	CNC[C@H]1Oc2c(NC(=O)C3CCCCC3)cccc2C(=O)N([C@@H](C)CO)C[C@@H]1C	i	-1	-3	1.7
13	C[C@H]1CN([C@@H](C)CO)C(=O)c2cc(NS(=O)(=O)c3ccc(Cl)cc3)ccc2O[C@@H]1CN(C)Cc1ccc(-c2ccccc2)cc1	i	1	-7	0.7
14	O=C(C[C@H]1C[C@@H]2c3cc(NS(=O)(=O)c4ccccc4)ccc3O[C@@H]2[C@@H](CO)O1)NCC(F)(F)F	i	-1	-1	0.2
15	CCCN(C)C[C@H]1OCCCC[C@H](C)Oc2ccc(NC(=O)c3ccccc3)cc2C(=O)N([C@@H](C)CO)C[C@H]1C	i	1	5	0.2

Shown as labelled records: entries from further up
[14] O=C(C[C@H]1C[C@@H]2c3cc(NS(=O)(=O)c4ccccc4)ccc3O[C@@H]2[C@@H](CO)O1)NCC(F)(F)F
  FGF22 binding: i | Ecoli rRNA inh: -1 | Ecoli rRNA inh OD600: -1 | Ecoli rRNA inh RFP: 0.2
[15] CCCN(C)C[C@H]1OCCCC[C@H](C)Oc2ccc(NC(=O)c3ccccc3)cc2C(=O)N([C@@H](C)CO)C[C@H]1C
  FGF22 binding: i | Ecoli rRNA inh: 1 | Ecoli rRNA inh OD600: 5 | Ecoli rRNA inh RFP: 0.2

The listing continues.
No.	mol	FGF22 binding	Ecoli rRNA inh	Ecoli rRNA inh OD600	Ecoli rRNA inh RFP
16	CC(C)C#Cc1ccc2c(c1)O[C@@H](CN(C)C(=O)c1cnccn1)[C@@H](C)CN([C@H](C)CO)S2(=O)=O	i	-9	-3	1.6
17	C[C@@H]1CN([C@@H](C)CO)C(=O)c2cc(NC(=O)Nc3ccccc3)ccc2O[C@@H]1CN(C)C(=O)Nc1ccccc1	i	-1	-5	-0.5
18	Cc1noc(C)c1S(=O)(=O)N(C)C[C@@H]1Oc2ccc(NC(=O)NC(C)C)cc2CC(=O)N([C@H](C)CO)C[C@@H]1C	i	1	10	2.0
19	CCCNC(=O)Nc1ccc2c(c1)OC[C@H](C)N(C(=O)c1ccccc1F)C[C@H](C)[C@@H](OC)CN(C)C2=O	i	-3	-4	-0.8
20	C#CCNC(=O)C[C@H]1C[C@@]2(C(=O)OC)C(=C[C@H](C(C)(C)C)O[C@@H]2C)N(CCC2=CCCCC2)C1=O	i	2	-1	1.4
21	CO[C@H]1CN(C)C(=O)c2ccc(NC(=O)Nc3ccccc3F)cc2OC[C@H](C)N(Cc2ccccc2C(=O)O)C[C@@H]1C	i	2	0	-3.1
22	CN1C(=O)c2cc(NC(=O)NCc3ccccc3)ccc2OC[C@H]2O[C@H](CC(=O)O)CC[C@H]21	i	4	2	-0.6
23	COc1ccc2c3c(n(C)c2c1)[C@H](CO)N(C(=O)Nc1ccc(F)cc1)CC31CCN(C(=O)CN2CCOCC2)CC1	i	-2	0	0.3
24	C[C@@H]1CN([C@@H](C)CO)C(=O)c2cc(NC(=O)Nc3ccc(C(F)(F)F)cc3)ccc2O[C@@H](C)CCCCO[C@H]1CN(C)Cc1ccc(C(=O)O)cc1	i	0	-2	2.6
25	Cc1noc(C)c1NC(=O)Nc1ccc2c(c1)C(=O)N([C@@H](C)CO)C[C@H](C)[C@@H](CN(C)S(=O)(=O)c1ccc(Cl)cc1)O2	i	2	0	0.8
26	COc1ccc(NC(=O)N(C)C[C@H]2Oc3ccc(NS(C)(=O)=O)cc3CC(=O)N([C@H](C)CO)C[C@@H]2C)cc1	i	1	4	-0.8
27	Cc1noc(C)c1S(=O)(=O)N(C)C[C@H]1Oc2ccc(NC(=O)C3CCCCC3)cc2CC(=O)N([C@H](C)CO)C[C@H]1C	i	-3	-4	-0.3
28	Cc1ccc(-c2ccc3c(c2)O[C@H](CN(C)C(=O)Nc2ccc(C(F)(F)F)cc2)[C@@H](C)CN([C@@H](C)CO)S3(=O)=O)cc1	i	-5	-2	-1.3
29	COc1ccccc1-c1ccc2c(c1)O[C@H](CN(C)C)[C@H](C)CN([C@@H](C)CO)S2(=O)=O	i	5	8	-3.4
30	C[C@@H]1CN([C@H](C)CO)C(=O)c2cc(NS(=O)(=O)c3cn(C)cn3)ccc2O[C@H]1CN(C)Cc1ccccc1	i	1	15	-3.6
31	CC(C)NC(=O)NCC[C@H]1CC[C@H](NS(=O)(=O)c2ccc(Oc3ccccc3)cc2)[C@@H](CO)O1	i	0	-16	1.7
32	Cc1ccc(S(=O)(=O)NCC[C@H]2CC[C@@H](NC(=O)Nc3ccccc3F)[C@H](CO)O2)cc1	i	1	9	-2.7
33	CC(C)CC#Cc1ccc2c(c1)O[C@@H](CN(C)C(=O)c1ccccn1)[C@H](C)CN([C@H](C)CO)S2(=O)=O	i	-2	-24	4.9
34	Cc1noc(C)c1NC(=O)N(C)C[C@@H]1OCCCC[C@H](C)Oc2ccc(NS(=O)(=O)c3c(C)noc3C)cc2C(=O)N([C@@H](C)CO)C[C@H]1C	i	3	9	-2.6
35	CCCNC(=O)[C@H]1[C@H](CO)[C@H]2Cn3c(ccc(C4=CCCCC4)c3=O)[C@@H]1N2Cc1cocn1	i	1	-8	-1.0
36	Cc1ccccc1-c1cnc2c(c1)C(=O)N([C@H](C)CO)C[C@@H](C)[C@H](CN(C)C(=O)c1ccccc1)O2	i	-2	-2	-2.9
37	CCOC(=O)N(C)C[C@@H]1OCc2ccccc2-c2ccccc2C(=O)N([C@@H](C)CO)C[C@H]1C	i	-2	-7	-3.6
38	Cc1noc(C)c1NC(=O)Nc1ccc2c(c1)C(=O)N([C@H](C)CO)C[C@@H](C)[C@H](CN(C)Cc1ccc3c(c1)OCO3)OCCCC[C@H](C)O2	i	0	2	-0.3
39	OC[C@@H]1[C@H](c2ccc(-c3ccccc3F)cc2)[C@@H]2CN(Cc3cccnc3)CCCCN12	i	-3	-2	-3.2
40	C[C@@H]1CN([C@@H](C)CO)C(=O)c2cc(NC(=O)NC3CCCCC3)ccc2O[C@@H]1CN(C)C(=O)Nc1ccc(C(F)(F)F)cc1	i	1	0	0.5
41	Cc1ccc(S(=O)(=O)N(C)C[C@H]2Oc3ccc(NC(=O)Nc4ccc(F)cc4)cc3C(=O)N([C@H](C)CO)C[C@@H]2C)cc1	i	1	-9	4.4
42	CCNC(=O)[C@H]1[C@H](CO)[C@H]2Cn3c(ccc(-c4cccc(OC)c4)c3=O)[C@H]2N1C(=O)NC(C)C	i	-1	1	-1.4
43	CC1C=NC(S(=O)(=O)N2CC[C@@H]3[C@H](CO)N(C)c4ccc(C#Cc5cccnc5)cc4[C@@H]32)=N1 (stereo partly drawn)	i	-3	6	0.5
44	COCC(=O)N(C)C[C@H]1Oc2cc(-c3ccc(C)cc3)ccc2S(=O)(=O)N([C@@H](C)CO)C[C@H]1C	i	-2	9	-0.3
45	CC(=O)O[C@@H]1C=C[C@@H](C#Cc2ccc(C(C)(C)C)cc2)O[C@@H]1COC(=O)Nc1ccccc1	i	10	8	11

Among those listed so far, these have a Cl atom:
No.	mol	FGF22 binding	Ecoli rRNA inh	Ecoli rRNA inh OD600	Ecoli rRNA inh RFP
1	C[C@@H]1CN([C@H](C)CO)C(=O)c2cc(NC(=O)CCCN(C)C)ccc2O[C@H]1CN(C)S(=O)(=O)c1ccc(Cl)cc1	i	5	12	-2.0
13	C[C@H]1CN([C@@H](C)CO)C(=O)c2cc(NS(=O)(=O)c3ccc(Cl)cc3)ccc2O[C@@H]1CN(C)Cc1ccc(-c2ccccc2)cc1	i	1	-7	0.7
25	Cc1noc(C)c1NC(=O)Nc1ccc2c(c1)C(=O)N([C@@H](C)CO)C[C@H](C)[C@@H](CN(C)S(=O)(=O)c1ccc(Cl)cc1)O2	i	2	0	0.8

Later entries
No.	mol	FGF22 binding	Ecoli rRNA inh	Ecoli rRNA inh OD600	Ecoli rRNA inh RFP
46	C[C@H](CO)N1C[C@H](C)[C@H](CN(C)C(=O)C2CCCCC2)OCCCC[C@H](C)Oc2ccc(NS(C)(=O)=O)cc2C1=O	i	-6	8	-1.4
47	C[C@H](CO)N1C[C@H](C)[C@H](CN(C)C(=O)C2CC2)Oc2ncc(-c3ccc(C(=O)N(C)C)cc3)cc2C1=O	i	4	20	-4.5
48	CCCNC(=O)N(C)C[C@@H]1Oc2cc(C#Cc3ccccn3)ccc2S(=O)(=O)N([C@@H](C)CO)C[C@H]1C	i	1	2	-1.8
49	C[C@H]1CN([C@@H](C)CO)C(=O)c2cc(NC(=O)Cc3ccccc3)ccc2O[C@H]1CN(C)C	i	0	8	-0.5
50	C[C@@H]1CCCCO[C@@H](CN(C)Cc2ccc(C(=O)Nc3ccccc3N)cc2)[C@@H](C)CN([C@H](C)CO)C(=O)c2cc(NC(=O)Nc3cccc4ccccc34)ccc2O1	i	-3	-3	-1.6
51	CO[C@H]1CN(C)C(=O)c2cc(NC(=O)C3CCC3)ccc2OC[C@@H](C)N(C)C[C@H]1C	i	2	5	-1.1
52	COC(=O)[C@]12C[C@H](CC(=O)NCCCN3CCCC3=O)C(=O)N(Cc3ccc4c(c3)OCO4)C1=C[C@H](C(C)(C)C)O[C@@H]2C	i	-1	-1	1.8
53	COc1cccc(NC(=O)N(C)C[C@@H]2Oc3cc(C#Cc4ccc(F)cc4)ccc3S(=O)(=O)N([C@@H](C)CO)C[C@H]2C)c1	i	1	-1	1.0
54	N#C[C@H]1[C@H](c2ccc(-c3cccc(F)c3)cc2)[C@@H](CO)N1S(=O)(=O)c1cccc(F)c1	i	-22	-36	28
55	CC(C)(C)[S@@](=O)N1Cc2cc(C(=O)NCc3ccccn3)nc(-c3cccc(-c4ccccc4F)c3)c2[C@H]1CCO	i	-15	-6	33
56	Cc1noc(C)c1NC(=O)N(C)C[C@H]1OCCCC[C@H](C)Oc2ccc(NC(=O)Nc3ccccc3)cc2C(=O)N([C@H](C)CO)C[C@@H]1C	i	3	7	0.5
57	C[C@@H]1CCCCO[C@@H](CN(C)Cc2ccc3c(c2)OCO3)[C@H](C)CN([C@@H](C)CO)C(=O)c2cc(NC(=O)Nc3ccc4c(c3)OCO4)ccc2O1	i	3	-13	7.6
58	O=C(NC1Cc2ccccc2C1)[C@@H]1[C@@H](CO)[C@@H]2Cn3c(ccc(C4=CCCC4)c3=O)[C@H]1N2	i	-1	1	2.6
59	CC(=O)N(C)C[C@H]1Oc2ncc(/C=C/c3ccccc3)cc2C(=O)N([C@H](C)CO)C[C@@H]1C	i	1	15	1.1
60	CCCN1C[C@H](C)[C@H](OC)CN(C)C(=O)c2ccc(NC(=O)Nc3ccccc3F)cc2OC[C@H]1C	i	2	4	0.8
61	CC(C)NC(=O)N1[C@H](C#N)[C@H](c2ccc(-c3ccc(F)cc3)cc2)[C@@H]1CO	i	6	-24	-1.1
62	CC(=O)N(C)C[C@@H]1Oc2cc(C#CCC(C)C)ccc2S(=O)(=O)N([C@@H](C)CO)C[C@H]1C	i	-7	-23	-0.3
